BJeLR viability: BJeLR cell viability loss. BJeLR (HRASV12) viability, CellTiter-Glo ATP luminescence, 48 h; reference of the scale not given here. inhibition, % (no concentration beside the values). 0.17% of 300,000 active;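 active means replicate mean above 50%; inconclusive means above 50% but judged a plate artefact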;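 further: 50 nL library stock added to about 25 µL; numbers are from one replicate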
Bead autofluor: flagged as autofluorescent in microsphere protease counterscreen; compound autofluorescence counterscreen, microsphere flow cytometry; stronger effect = higher value; fluorescence intensity (concentration not given with the values); 3.1% of 360,000 active;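 active means at least 3 SD above the mean of all compounds, about 16000 in these data; inconclusive means too few beads counted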;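 further: 100 nL of 1 mM stock went into each well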
Mtb hypoxia inh: inhibitors of hypoxia-regulated fluorescent reporter in Mycobacterium tuberculosis. M. tuberculosis hypoxia-regulated fluorescent reporter, fluorescence. fluorescence inhibition, % (no concentration beside the values). 0.1% of 300,000 active;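 active means 35 to 45% if threefold the growth effect, above 45% if 1.5-fold the growth effect; inactive means the rest, general growth blockers included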;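 further: wells of about 50 µL received 100 nL stock; 0% = vehicle wells and 100% = reference inhibitor wells; whole bacteria with a GFP reporter of the hypoxia response; strong numbers were not always called active; many hits fall short of the cut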
RN4220 kill: S. aureus RN4220 growth inhibition | OD600, 16 h | inhibition, % (concentration not given with the values) | 0.33% of 330,000 active | AID 1259311;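 active means z-score of -3 or lower and OD600 up to 0.18 on both plates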;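 further: plate controls were untreated cells for no effect and reference antibiotic for full effect; stock transfer was 100 nL into about 80 µL; one replicate is shown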
PrP 5UTR inh: inhibition of PrP 5' UTR reporter expression; AID 488862; inhibition, % (concentration not given with the values); cell-based PrP 5' UTR mRNA reporter, plate reader; 0.35% of 340,000 active;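 active means every replicate at 50% or more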;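 further: 0 = median of the neutral control wells; tested in H4 reporter cells; numbers are from one replicate; inactives centre near -14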
ugtP null kill: compounds lethal to S. aureus RN4220 ugtP deletion mutant; OD600 growth, 16 h; some inactives read as strong as hits; growth inhibition, % (concentration not given with the values); 0.54% of 330,000 active;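 active means z-score under -3 and OD600 up to 0.15 on both plates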;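 further: plate controls were untreated wells for no effect and antibiotic for full effect; wells of about 80 µL received 100 nL stock; the first replicate is given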
Mtb hypoxia inh growth: recorded beside Mtb hypoxia inh, whose call it bears; growth inhibition, %; measured here: M. tuberculosis growth (absorbance);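 0% = vehicle and 100% = reference antibiotic; read after six days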
* hit, by the source's call; ? = inconclusive; nt = not tested or not shown.

Order of results – RN4220 kill | Bead autofluor | Mtb hypoxia inh growth | PrP 5UTR inh | BJeLR viability | Mtb hypoxia inh | ugtP null kill
Cc1cc(C)nc(SCc2ccc(C(=O)N/N=C/c3ccncc3)cc2)n1
    nt | 3407 | nt | -8 | -7 | nt | nt
O=C(CN1CCN(C(=O)CNC(=O)c2ccc(N3CCCC3=O)cc2)CC1)Nc1ccccc1Cl
    5.2 | 6458 | 4 | -1 | nt | 8 | 10
O=C(COc1ccc(Cl)cc1)NCc1nnc(SCC(=O)c2ccccc2)o1
    -1.3 | 3725 | nt | -10 | 5 | nt | -4
COC(=O)C1=C(C(=O)OC)[C@@H]2Nc3ccccc3[C@@]23C[C@@H](C(=O)OC)N(C(=O)c2ccco2)C3=N1
    nt | 3047 | nt | -16 | 1 | nt | nt
O=C(COc1ccc(Cl)cc1Br)Nc1ccccc1N1CCCC1
    -4.3 | 5835 | 10 | -6 | 5 | 0 | 2
O=C(Nc1ccon1)c1ccc(S(=O)(=O)N2CCOCC2)cc1
    3.2 | 3215 | -8 | -12 | nt | -8 | 5
COC(=O)NN=Cc1cc2c(cc1Br)OCO2
    -1.4 | nt | 5 | nt | nt | -8 | -4
COc1ccc(OCCSc2nnc3c(Cl)cc(Cl)cn23)cc1
    -1.1 | 2446 | -1 | -21 | -5 | -3 | 1
O=C(CSc1nnc(CNC(=O)c2cccs2)o1)Nc1cccc(F)c1
    2.4 | 5183 | 8 | -30 | 1 | 9 | 4
O=C(Nc1ccc(Br)cc1)c1ccc(CSC2=NCCS2)cc1
    1.3 | 3107 | 1 | -61 | 8 | -6 | -3

Reprinted from the part before: 5 compounds, then new ones.
Order of results – RN4220 kill | Bead autofluor | Mtb hypoxia inh growth | PrP 5UTR inh | BJeLR viability | Mtb hypoxia inh | ugtP null kill
O=C(Nc1ccon1)c1ccc(S(=O)(=O)N2CCOCC2)cc1
    3.2 | 3215 | -8 | -12 | nt | -8 | 5
COC(=O)NN=Cc1cc2c(cc1Br)OCO2
    -1.4 | nt | 5 | nt | nt | -8 | -4
COc1ccc(OCCSc2nnc3c(Cl)cc(Cl)cn23)cc1
    -1.1 | 2446 | -1 | -21 | -5 | -3 | 1
O=C(CSc1nnc(CNC(=O)c2cccs2)o1)Nc1cccc(F)c1
    2.4 | 5183 | 8 | -30 | 1 | 9 | 4
O=C(Nc1ccc(Br)cc1)c1ccc(CSC2=NCCS2)cc1
    1.3 | 3107 | 1 | -61 | 8 | -6 | -3
N#CC1(Nc2cccc(Br)c2)C(=O)Nc2ccccc21 (configuration not stated)
    6.2 | 5287 | 2 | -5 | -4 | 16 | -21
CC(=NNS(=O)(=O)c1cc(C)ccc1C)c1c[nH]c2ccccc12
    1.2 | nt | 9 | nt | nt | -3 | -6
COc1ccccc1N1CCN(Cc2ccc(-c3ccccc3[N+](=O)[O-])o2)CC1
    2.3 | 3583 | 1 | -5 | -2 | 13 | 20
Cc1cc(Cl)cc2sc(NC(=O)c3ccco3)nc12
    -0.4 | 6158 | 6 | -80 | -27 | 4 | -8
COc1cc(N=c2oc3c(C)ncc(CO)c3cc2C(N)=O)cc(OC)c1OC
    3.1 | 4562 | 6 | -3 | 1 | 1 | 0
CC(=O)NCCc1ccc(C(=O)COC(=O)c2ccco2)cc1
    0.7 | 3969 | 6 | -52 | nt | -5 | 1
O=C(CSc1ccc(Cl)cc1)N1CCC(c2nc3ccccc3s2)CC1
    5.7 | 2789 | nt | -14 | 4 | nt | -12
NC(=S)Cc1nc2n(n1)Cc1ccccc1-2
    4.9 | 15986 | -11 | 0 | -10 | 3 | 19
CCCCN(C1CCS(=O)(=O)C1)S(=O)(=O)c1ccc(OC)cc1 (configuration not stated)
    2.0 | 5705 | -1 | -24 | -6 | 2 | 4
O=C(NN=Cc1ccncc1)c1cccc(S(=O)(=O)N2CCCC2)c1
    -2.4 | nt | 5 | nt | nt | -10 | 0
CCOC(=O)N1CCN(C(=O)c2ccc(S(=O)(=O)Nc3cccc(C(F)(F)F)c3)cc2)CC1
    5.0 | ? | 4 | -8 | 5 | -9 | -4
CCN1C(=O)/C(=C\C=C2/C=CC=CN2CC)SC1=S
    2.5 | 2425 | 1 | -82 | 32 | 20 | 0
C[N+](C)(C)CCOP(=O)([O-])OCC(O)CO (configuration not stated)
    6.3 | nt | 0 | nt | nt | 0 | 0
CCCCN1C(=O)C(=O)N(CC(=O)c2ccc3c(c2)OCO3)C1=O
    0.8 | 4264 | -1 | -15 | -8 | 8 | 2
O=C(Nc1ccc2c(c1)OCO2)C1CCCN1C(=O)Nc1ccccc1F (configuration not stated)
    4.0 | 12531 | 3 | -20 | -9 | 1 | -5
Cc1cc(C)cc(NC(=O)Nc2cccc(S(N)(=O)=O)c2)c1
    0.5 | 4666 | 3 | nt | -12 | 2 | 9
Cc1ccc(S(=O)(=O)N2CCN(C(=O)N(C)C)CC2)cc1
    7.6 | 3342 | 10 | 62* | -7 | 7 | 2
Cc1ccc(-c2nnc(SCC(=O)NC3CCCC3)n2C)cc1
    2.5 | 5359 | 4 | -5 | 1 | 1 | 12
CCC(=O)Nc1nc2ccc(NC(=O)c3cc(OC)c(OC)c(OC)c3)cc2s1
    7.1 | 3212 | 14 | -19 | 1 | 16 | 0
CN(C)CCCn1cnc2c(c1=N)C(c1ccccc1)c1ccc3ccccc3c1O2 (configuration not stated)
    -2.5 | 3754 | nt | -38 | 42 | nt | -13
CCC1CCC(N2CCN(c3ccc([N+](=O)[O-])cc3)CC2)CC1 (configuration not stated)
    2.1 | 2937 | -5 | 9 | 2 | 2 | 5
O=C(Nc1cccc2ccccc12)/C(Cl)=C/c1ccccc1
    -6.7 | 2308 | nt | -25 | -4 | nt | 27
CC(OC(=O)Cn1c(C(F)(F)F)nc2ccccc21)C(N)=O (configuration not stated)
    6.7 | 3271 | 7 | -26 | -1 | 2 | 10
CCC(C)n1cnc2c(c1=O)c1nc3ccccc3nc1n2-c1ccc2c(c1)OCCO2 (configuration not stated)
    6.0 | 8015 | 3 | -4 | -3 | 1 | -22
CCOC(=O)C1CCCN(C(=O)C=Cc2cc(OC)c(OC)c(OC)c2)C1 (configuration not stated)
    -0.4 | nt | -4 | nt | nt | -3 | -9
S=C(Nc1ccc(Cl)cc1Cl)Nn1cnnc1
    6.1 | 2384 | -2 | -10 | -1 | 4 | 6
Cc1ccc(C(=O)NC(NCc2ccco2)C(Cl)(Cl)Cl)cc1 (configuration not stated)
    3.4 | 2030 | 8 | -30 | -3 | -3 | 3
O=C(COC(=O)Cc1c(Cl)cccc1Cl)NCc1ccco1
    5.2 | 3461 | 2 | -10 | nt | 1 | -3
COc1ccc(OC)c(NC(=O)C(=O)NN=Cc2ccccc2[N+](=O)[O-])c1
    2.6 | nt | -1 | nt | nt | 2 | 9
COC(=O)c1cccc(NC(=O)CN2C(=O)C3CCCCC3C2=O)c1 (configuration not stated)
    1.4 | ? | -12 | -16 | nt | 5 | 16
NC(=O)c1ccccc1N=Cc1cccnc1
    3.1 | 5972 | 17 | -20 | 4 | 7 | 9
O=C(NC1=NCCS1)c1cc(-c2cccnc2)nc2ccccc12
    -15 | 3942 | -5 | -18 | -10 | 1 | -6
Cn1c(=O)c2sc3c(c2n(CC(=O)Nc2ccccc2)c1=O)COC(C)(C)C3
    4.2 | 5417 | 2 | -24 | 7 | 5 | -5
COc1ccc(C(=O)Nc2ccc(S(=O)(=O)NC(C)=O)cc2)cc1[N+](=O)[O-]
    0.5 | 4470 | -3 | 4 | 0 | -8 | -2
CC(=O)c1ccc(N2CCN(C(=O)c3cc4c(s3)CCCC4)CC2)cc1
    9.9 | 4420 | 10 | -99 | -8 | 11 | -4
C#CCOCCOCCOCCNc1nc(N2CCN(C(=O)[C@H]([C@@H](C)O)n3cc(CCCCN)nn3)CC2)nc(N2CCN(C(=O)[C@H](C)n3cc(CCCN=C(N)N)nn3)CC2)n1
    nt | 4394 | nt | -1 | -4 | nt | nt
COc1ccc(NC(=O)CSc2ccc3nnc(CCNC(=O)c4ccccc4)n3n2)cc1OC
    1.0 | 4806 | 5 | -22 | -1 | 8 | 7
CNS(=O)(=O)c1cccc(C(=O)OCC(=O)N2c3ccccc3CC2C)c1 (configuration not stated)
    0.7 | 3683 | nt | -27 | -3 | nt | 3
COC(=O)c1cc2occc2n1CC(=O)N(C)C1CCCCC1
    -2.9 | 12529 | 2 | -7 | 0 | -7 | 0
Cc1ccc(CS(=O)(=O)CCC(=O)NCCN2CCCC2)cc1
    2.7 | 13606 | 0 | -16 | -1 | -1 | 9
CSc1nc2ccc(NC(=O)C3CC(=O)N(Cc4ccccc4)C3)cc2s1 (configuration not stated)
    13 | 3570 | nt | -12 | 4 | nt | 3
Cc1ccnc(N2CCC(C(=O)NCc3ccccc3F)CC2)n1
    -5.0 | 4051 | -7 | -8 | 9 | 1 | 1
CC(=O)N1CC[n+]2c(-c3ccc(Cl)cc3)csc21
    -0.4 | 2614 | 10 | -24 | 2 | 11 | 18
O=C(c1ccc(F)cc1)N1CCN(S(=O)(=O)c2ccc(Br)cc2)CC1
    0.8 | 5433 | 8 | -7 | -8 | 0 | 6
CC12CCC(C(N)=O)(c3nc4ccccc4nc31)C2(C)C (configuration not stated)
    -2.3 | 4028 | nt | -6 | 0 | nt | 9
Cc1ccc(N(C(=O)Cn2nnc(-c3ccc(C)o3)n2)C(C(=O)NC2CCCC2)c2ccncc2)cc1 (configuration not stated)
    1.0 | 3443 | 0 | -22 | -5 | 6 | 4
COc1ccc(-c2nc3ccccc3c(=O)o2)cc1
    5.9 | 2503 | 5 | -25 | 10 | -1 | -3
O=C(O)CCCNS(=O)(=O)c1cccc2nsnc12
    -3.2 | 3928 | 1 | -27 | 4 | 4 | -6
CCOC(=O)C1CCN(C(=O)CNC(=O)OC(C)(C)C)CC1
    0.6 | 4759 | nt | -29 | -1 | nt | 4
O=C(CCc1ccccc1)NC(NC(=S)Nc1ccc(Br)cc1)C(Cl)(Cl)Cl (configuration not stated)
    -4.2 | 8990 | 0 | 3 | 0 | -6 | -24

Overlap with the part before: 3 compounds, then new ones.
Order of results – RN4220 kill | Bead autofluor | Mtb hypoxia inh growth | PrP 5UTR inh | BJeLR viability | Mtb hypoxia inh | ugtP null kill
O=C(O)CCCNS(=O)(=O)c1cccc2nsnc12
    -3.2 | 3928 | 1 | -27 | 4 | 4 | -6
CCOC(=O)C1CCN(C(=O)CNC(=O)OC(C)(C)C)CC1
    0.6 | 4759 | nt | -29 | -1 | nt | 4
O=C(CCc1ccccc1)NC(NC(=S)Nc1ccc(Br)cc1)C(Cl)(Cl)Cl (configuration not stated)
    -4.2 | 8990 | 0 | 3 | 0 | -6 | -24
COc1ccc(NC(=O)Nc2ccccc2F)cc1Cl
    3.7 | 2331 | 5 | -92 | -10 | 7 | 3
CN1CCN(C(=O)c2ccc3c(Cl)c4c(nc3c2)CCCC4)CC1
    5.6 | 4632 | -1 | 3 | 10 | 14 | 4
Cc1ccc(S(=O)(=O)NCC(=O)NCC(=O)N2CCC(C)CC2)cc1
    2.1 | 3720 | -3 | -7 | 0 | 12 | 8
CCCN(CC1CC1)C(=O)Nc1ccccc1C
    1.6 | 4708 | nt | -9 | -5 | nt | 3
O=C(N/N=C/c1cccc([N+](=O)[O-])c1)C1CC(=O)N(c2ccc(Cl)cc2)C1 (configuration not stated)
    nt | 2477 | nt | -11 | -2 | nt | nt
CCCOC(=O)/C(C(N)=NCc1ccccc1)=C(\O)OCCC
    4.1 | 10289 | 0 | -25 | 9 | 3 | 13
CC(NC(=O)C12CC3CC(CC(C3)C1)C2)C(=O)NN=Cc1ccc([N+](=O)[O-])o1 (configuration not stated)
    6.4 | 4460 | 9 | -30 | nt | 0 | 2
Cc1nn(C(C)C(=O)Nc2ccc3c(c2)OCO3)c(C)c1[N+](=O)[O-] (configuration not stated)
    3.0 | 4462 | 8 | -17 | -15 | 6 | 7
CN1CCN(C(=O)COc2ccc3ccccc3c2)CC1
    1.6 | 3071 | -3 | 5 | -11 | 4 | 3
CC(=Nn1cnnc1)c1ccc(C#N)cc1
    2.4 | nt | 2 | nt | nt | -1 | 5
COCCNCC(=O)Nc1ccc(OC(F)(F)F)cc1
    3.7 | 4543 | -2 | -6 | -6 | 10 | 3
CCn1c(=O)cc(OCC(=O)NC(C)c2ccc3c(c2)OCCO3)c2ccccc21 (configuration not stated)
    -0.5 | 3945 | -1 | -28 | -1 | 5 | 6
Cc1cc(C)n(CCC(=O)N2CCCC(Nc3ccc(F)cc3)C2)n1 (configuration not stated)
    -0.1 | 4962 | 10 | -28 | -8 | -1 | 2
CC(C)CC(NC(=O)OC(C)(C)C)C(=O)NC(CO)C(O)C1CC1C(=O)NC1CCCCC1 (configuration not stated)
    6.2 | nt | 5 | nt | nt | 20 | -3
